Screens from PubChem.
TRPML1 agonist – qHTS for Agonists of the Human Mucolipin Transient Receptor Potential 1 (TRPML1); activation, % (concentration not given with the values); Mucolipin-1 (Homo sapiens), Q9GZU1; TRPML1-expressing cells, Ca2+ dye fluorescence, FDSS; host cell line not named in the record; reference of the full effect not given here; hit rate 0.12% among 410,000; in the data active = activation above about 50%; inconclusive = about 30% to 50%; inactive = below about 30%; note: 0% is about no effect; the text of the record puts the active cut at 80%
Target sequence (Q9GZU1 whole entry, looked up): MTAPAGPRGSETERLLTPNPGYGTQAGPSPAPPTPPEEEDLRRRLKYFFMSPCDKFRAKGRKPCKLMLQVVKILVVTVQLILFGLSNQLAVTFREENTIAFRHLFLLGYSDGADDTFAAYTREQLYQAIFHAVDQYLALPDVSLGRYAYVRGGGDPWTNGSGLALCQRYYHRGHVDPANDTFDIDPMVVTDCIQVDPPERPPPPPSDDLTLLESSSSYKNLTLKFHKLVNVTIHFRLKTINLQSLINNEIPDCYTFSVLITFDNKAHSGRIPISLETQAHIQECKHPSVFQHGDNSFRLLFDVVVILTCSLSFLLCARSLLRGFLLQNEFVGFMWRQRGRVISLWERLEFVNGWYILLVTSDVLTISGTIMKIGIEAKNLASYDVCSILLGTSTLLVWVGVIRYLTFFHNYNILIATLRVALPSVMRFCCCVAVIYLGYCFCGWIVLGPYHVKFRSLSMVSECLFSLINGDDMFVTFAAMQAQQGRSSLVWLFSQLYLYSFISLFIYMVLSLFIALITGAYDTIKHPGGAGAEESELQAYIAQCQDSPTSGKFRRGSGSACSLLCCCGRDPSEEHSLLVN
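Cells: TRPML1-DL, 1X Tet inducer, ~16 h at 37 degrees C/5% CO2. Dye: ABD Ca8 no-wash + quencher, 45-90 min RT. Read: 10 s baseline, compound add, 110 s agonist phase; 54-4 EC80 (4uM final), 110 s antagonist phase.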
CtBP-E1A inh – qHTS Assay for Inhibitors of the CtBP/E1A Interaction. CtBP / adenovirus E1A interaction (AlphaScreen). activity change, % (concentration not given with the values). AlphaScreen GST-E1A/His-CtBP binding, 1536-well; hits give low values; control for the full effect not named in the record. hit rate 0.49% among 340,000; in the data active means activity change below about -65%; inconclusive means about -30% to -65%; inactive means above about -30%; note: % is set by controls: 0 for no effect and ±100 for the full control effect
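GST-E1A and His-tagged CtBP (125 nM each as 5X stock) were preincubated with pin-transferred compound for 2 h at 37 °C in the dark, then glutathione donor and nickel acceptor beads were added for 1 h before AlphaScreen reading.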
Six1-Eya2 inh – qHTS Assay for Inhibitors of the Six1/Eya2 Interaction; hit rate 0.56% among 360,000; activity change, % (no concentration beside the values); AlphaScreen GST-Six1/His-Eya2 binding, biochemical; hits give low values; control for the full effect not named in the record; Homeobox protein SIX1 (Homo sapiens) + Protein phosphatase EYA2 (Homo sapiens), …; in the data active = activity change below about -65%; inconclusive = about -30% to -65%; inactive = above about -30%; note: % is set by controls: 0 for no effect and ±100 for the full control effect; compound concentration not given in the record
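AlphaScreen with GST-Six1 and His-Eya2 (5X mix: 250 nM and 500 nM), glutathione donor and nickel acceptor beads; buffer 50 mM Tris pH 8.0, 300 mM NaCl, 1 mM TCEP; 1 h at 37 C in the dark.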
PINK1 expr mod – A Quantitative High throughput Screen to Identify Chemical Modulators of PINK1 Expression; AID 624263, 2012; PINK1 immunofluorescence, high-content cytometry, 24 h; hit rate 0.2% among 410,000; Potency, µM (top dose mostly 76.6 µM), for the others: top-dose activation (PINK1 increase), most hits filed as activators; active = well fitted activation curve with a large enough effect; inconclusive = small, poorly fitted or top-dose-only effect; inactive = flat fitted curve, though single readings scatter; cell line not stated here;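 note: potency is the fitted concentration of half-maximal effect; % of control where 0% means no effect; nearly all actives have a fitted effect of over 65% in size; a mitochondrial uncoupler was the plate control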
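Cells are seeded, rested 12 hours, then given compound at five concentrations or DMSO for 24 hours. After fixation, blocking and antibody staining, PINK1 amount and mitochondrial localization are scored; CCCP serves as control.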
D2 agonist – Beta-Arrestin HTS for Positive Allosteric Modulators of the Human D2 Dopamine Receptor: Agonists. DiscoveRx PathHunter D2 beta-arrestin, luminescence, 90 min; 100% = 57 uM dopamine signal. activation, % (test concentration not listed). hit rate 0.084% among 360,000. AID 624465, 2012; in the data active = activation above about 40%; inconclusive = about 15% to 40%; inactive = below about 15%; note: compound concentration not given in the record; the text of the record calls up to 30% inactive
Target sequence (P14416 whole entry, looked up): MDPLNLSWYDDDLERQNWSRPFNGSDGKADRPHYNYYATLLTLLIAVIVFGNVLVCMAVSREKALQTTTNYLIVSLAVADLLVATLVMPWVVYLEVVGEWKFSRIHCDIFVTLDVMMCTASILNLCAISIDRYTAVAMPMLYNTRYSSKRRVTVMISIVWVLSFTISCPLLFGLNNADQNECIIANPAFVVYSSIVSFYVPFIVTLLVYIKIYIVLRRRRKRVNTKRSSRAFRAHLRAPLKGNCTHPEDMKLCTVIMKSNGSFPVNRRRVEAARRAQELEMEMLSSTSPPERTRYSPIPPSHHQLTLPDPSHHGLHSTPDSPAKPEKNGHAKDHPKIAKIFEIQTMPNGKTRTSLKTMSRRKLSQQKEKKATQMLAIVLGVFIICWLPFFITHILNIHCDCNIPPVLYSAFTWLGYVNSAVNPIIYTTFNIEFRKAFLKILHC
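Agonist mode: compounds alone added to overnight-plated D2 PathHunter cells for 90 min at 37 C, with 57 uM final dopamine (EC100) defining full response. Beta-arrestin recruitment detected by chemiluminescent reagent, read after 1 h at ambient temperature.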
D2 PAM – Beta-Arrestin HTS for Positive Allosteric Modulators of the Human D2 Dopamine Receptor: Potentiators | D(2) dopamine receptor (Homo sapiens), P14416 | DiscoveRx D2 beta-arrestin cells, luminescence, 90 min; 100% = 57 uM dopamine signal | potentiation, % (test concentration not listed) | hit rate 0.23% among 360,000 | AID 624464, 2012; active = potentiation of 50% or more; inconclusive = 30% to 50%; inactive = 30% or less;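 note: compound concentration not given in the record; tested on top of an EC20 dose of dopamine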
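PathHunter D2 cells, attached overnight at 37 deg C, received compound in DMSO plus dopamine at EC20 (50 nM final) for 90 min at 37 deg C. Beta-arrestin recruitment was read as luminescence after 1 h with detection reagent at ambient temperature.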
An asterisk follows results filed as active; ? = inconclusive; / = no result given; & = joins results of further samples; [ ] = dose if it differs, or a comment.

SMILES	TRPML1 agonist	CtBP-E1A inh	Six1-Eya2 inh	PINK1 expr mod	D2 agonist	D2 PAM
Cc1ccc2[nH]c(=O)c(-c3nc4ccccn4c3NCc3ccco3)cc2c1	1.1	-4	-5	3.6%[38.3 µM]	-1.2	-2
O=c1cc(CN2CCN(c3ccccc3)CC2)nc2scc(-c3ccccc3)n12	2.8	1	-11	-0.6%	?	-6
CCOc1ccc(-c2nc(CCl)cs2)cc1OC	-1.6	4	1	3.4%	-3.0	-4
Cc1ccc(N=C(NO)c2cnccc2C(F)(F)F)c(C)c1	0.1	-6	1	5.7%	-0.6	-8
CCCCCC(=O)NC(=S)Nc1ccc(Br)cc1C	0.9	18	15	6.7%	-0.3	-13
S=c1nc(SCc2ccccc2)[nH]c2ccccc12	1.5	-1	4	3.8%	-7.0	-6
Cc1ccc(S(=O)(=O)NC(CC(=O)N2CCc3ccccc32)c2ccco2)cc1 (stereo unspecified)	-0.1	-4	0	9.3%	-3.3	-7
N#CCC(=N)N1CCN(c2ccccc2)CC1	-0.1	-10	-15	3.5%	0.1	-22
O=c1[nH]c2ccccc2cc1-c1nnn(-c2ccccc2)n1	-0.6	3	-12	0.2%	-6.4	-22
Nc1nc(SCC(=O)Nc2cc(S(=O)(=O)N3CCOCC3)ccc2Cl)n[nH]1	0.0	12	7	2.4%	-4.0	-8
O=C(Nc1ccccc1Cl)N1CCN(c2ccc3nnc(-c4ccc(F)cc4)n3n2)CC1	0.5	-20	0	4.9%	-4.8	-20
CC[C@H](C)C(=O)N[C@H]1CCCN1C(=O)/C=C/c1ccccc1	-0.7	2	2	0.3%	-1.4	-2
COc1cc(OC)cc(-c2cc(N)n(S(=O)(=O)c3cccc4nsnc34)n2)c1	1.3	?	-7	1.2%	-1.9	-8
Cc1ccc(S(=O)(=O)N2CCCCC2)cc1C(=O)NCc1ccc(S(N)(=O)=O)cc1	0.0	-2	12	-1.5%	2.8	8
CC(NC(=O)c1ccc(Cl)c(S(=O)(=O)NC2CC2)c1)c1ccco1 (stereo unspecified)	-0.8	-1	-1	0.6%	-2.1	-27
Cn1ncc(Cl)c1C(=O)N1CCN(S(=O)(=O)c2cccs2)CC1	0.5	-3	-1	-0.9%	2.1	14
CC(=O)Nc1c(C)ccc(S(N)(=O)=O)c1C	-0.7	2	6	1.7%	7.0	3
CC1=CC(=C(C#N)C#N)C=C(C)N1Cc1ccccc1	0.1	-8	-2	-1.1%	2.5	-6
O=S(=O)(NCc1cccs1)c1cccc(S(=O)(=O)N2CCCCC2)c1	0.2	2	11	0.3%	0.8	-26
CCOC(=O)C1=CN(CC)S(=O)(=O)NC1CCc1ccccc1 (stereo unspecified)	1.1	-16	17	-0.2%	2.2	/
O=C(NCSc1ccnc(SCNC(=O)c2ccc(F)cc2)n1)c1ccc(F)cc1	0.1	11	5	0.5%	-3.2	-1
CC(=O)N1CCc2cc(S(=O)(=O)NCCC(=O)Nc3cccc(C)c3)ccc21	0.4	-6	1	0.4%	1.8	-6
CCn1c(SCC(=O)Nc2cccc(OC)c2)nnc1-c1ccc(Cl)cc1	2.2	-8	-2	3.7%[38.3 µM]	1.4	-5
NC(=O)c1ccsc1NC(=O)C1CC1	-0.6	1	-7	0.9%	0.5	-4

Sorted by heavy-atom count (descending): some entries from above.
SMILES	TRPML1 agonist	CtBP-E1A inh	Six1-Eya2 inh	PINK1 expr mod	D2 agonist	D2 PAM
Cc1ccc(S(=O)(=O)N2CCCCC2)cc1C(=O)NCc1ccc(S(N)(=O)=O)cc1	0.0	-2	12	-1.5%	2.8	8
COc1cc(OC)cc(-c2cc(N)n(S(=O)(=O)c3cccc4nsnc34)n2)c1	1.3	?	-7	1.2%	-1.9	-8
O=S(=O)(NCc1cccs1)c1cccc(S(=O)(=O)N2CCCCC2)c1	0.2	2	11	0.3%	0.8	-26
CC(NC(=O)c1ccc(Cl)c(S(=O)(=O)NC2CC2)c1)c1ccco1 (stereo unspecified)	-0.8	-1	-1	0.6%	-2.1	-27
Cn1ncc(Cl)c1C(=O)N1CCN(S(=O)(=O)c2cccs2)CC1	0.5	-3	-1	-0.9%	2.1	14
CC1=CC(=C(C#N)C#N)C=C(C)N1Cc1ccccc1	0.1	-8	-2	-1.1%	2.5	-6
CC(=O)Nc1c(C)ccc(S(N)(=O)=O)c1C	-0.7	2	6	1.7%	7.0	3

Next records
SMILES	TRPML1 agonist	CtBP-E1A inh	Six1-Eya2 inh	PINK1 expr mod	D2 agonist	D2 PAM
CC(C)c1ccc(OCC(=O)N2CCCCCC2)c(Br)c1	0.2	2	5	4.0%	-3.8	-7
COc1cccc(C(=O)Oc2ccc3c(C)cc(=O)oc3c2C(C)=O)c1	2.1	6	-4	3.7%	-0.8	-6
CC(Cc1ccccc1)NC(=O)c1cc([N+](=O)[O-])ccc1Cl (stereo unspecified)	0.7	-14	-10	-0.4%	-1.9	-4
CCn1c(SCC(=O)Nc2cc(C)on2)nnc1-c1cccnc1	-0.3	1	2	1.2%[38.3 µM]	-0.4	0
Cc1nn(CC(=O)N2CCCC2)c(=O)c2cc3cc(F)ccc3n12	-0.4	0	0	-0.9%	-2.3	-5
CSc1n[nH]c(=S)n1N	-0.5	4	-1	0.0%	-2.9	-8
COc1ccccc1C(=O)Nc1ccc(-c2nnn(CC(=O)N3CCN(C(=O)c4ccco4)CC3)n2)cc1	0.2	-5	-6	0.6%	1.4	5
CC(=O)N(C)c1ccc(N=Cc2cc3c(cc2[N+](=O)[O-])OCO3)cc1	0.5	-3	7	5.6%	1.7	-4
CS(=O)(=O)N1CCCC(C(=O)Nc2ccc(Br)cc2F)C1 (stereo unspecified)	0.5	7	0	-1.8%	6.2	-6
CCOC(=O)c1[nH]nc(-c2cc(CC)c(O)cc2O)c1-c1cscn1	1.6	-5	-6	-4.7%[38.3 µM]	1.1	-7
Cc1cccc(C)c1NC(=O)C(c1ccccc1)N1CC(=O)Nc2ccccc21 (stereo unspecified)	0.1	4	-5	4.9%	-6.3	-11
Cc1ccc(NS(=O)(=O)c2ccc(-n3cccn3)cc2)nc1	2.9	/	8	-1.7%	5.8	-2
O=S(=O)(c1ccc2ccccc2c1)n1cnc2ccccc21	4.6	5	3	0.1%	-1.7	0
Cn1nccc1-c1ccc(C(=O)NCc2ccc(Cl)cc2)c2occc12	0.0	-1	-15	0.7%	7.6	-10
CC1CCCCN1C(=O)CSc1nnc2ccccn12 (stereo unspecified)	0.7	-14	8	-1.4%	-0.3	-16
COc1ccc(-c2cc(C(=O)N3CCOCC3)c3ccccc3n2)cc1OC	-0.2	9	7	-0.2%	-8.8	-2
Cc1cccc(NC(=O)c2ccccc2SCc2ccc(F)cc2)n1	0.6	3	4	0.3%	-0.7	-5
COc1ccc(C2C3C(=O)N(N(C)c4ncc(C(F)(F)F)cc4Cl)C(=O)C3ON2C)cc1 (stereo unspecified)	2.8	-3	-13	-1.3%	1.6	0
COCCn1nnnc1CN1CCSCC1	3.7	3	11	0.4%	2.7	-7
CC1C(=O)N2CCCc3cc(NC(=O)COc4ccccc4)cc1c32 (stereo unspecified)	-0.3	2	-5	2.3%	-0.2	-23
O=C(NC(Cc1ccccc1)C(=O)NC1CC1)OCc1ccccc1 (stereo unspecified)	-0.4	10	-2	-1.4%	4.8	0
CNC(=O)C1(CC(C)C)C=CCN1C(C)=O (stereo unspecified)	0.2	/	1	0.3%	-2.9	-5
Cc1ccccc1OCC(=O)NCCCNC(=O)c1cccnc1	0.9	1	2	6.0%	-2.1	-2
Cc1ccc2c(c1)C1NC(=S)NC(C)(O2)C1C(=O)Nc1ccc(Cl)cc1 (stereo unspecified)	0.3	19	0	1.1%	-1.4	-28
COc1ccc(Cl)cc1NC(=O)C(C)Sc1n[nH]c(N)n1 (stereo unspecified)	-0.2	2	-2	2.0%	2.7	0
CC(C)(CO)CNC(=O)CC1C(=O)NCCN1CC(c1ccccc1)c1ccccc1 (stereo unspecified)	-0.7	4	1	-0.4%	-3.0	-11
Nc1ncnc2c1ncn2C1OC(CO)C(O)C1N (stereo unspecified)	/	6	29	1.1%	-1.7	-3
CN(C1CCCCC1)S(=O)(=O)c1ccc(NC(=O)C2CCCCC2)cc1	0.0	0	-3	-1.8%[38.3 µM]	-1.3	-9
O=C(/C=C/c1cccnc1)/C=C/c1cccnc1	/	5	-2	-1.0%	-13	-29
Cc1ccc(S(=O)(=O)c2c(N)n(Cc3ccco3)c3nc4ccccc4nc23)cc1C	4.1	1	4	-4.9%[38.3 µM]	-7.5	6
Cc1cc(N2C(=O)C(O)=C(C(=O)c3ccc(C)o3)C2c2ccc([N+](=O)[O-])cc2)no1 (stereo unspecified)	0.6	/	-5	1.9%	-3.1	-7
CN(C(=O)CSc1nnc(-c2ccc(Cl)cc2)n1C)C1CCS(=O)(=O)C1 (stereo unspecified)	0.8	8	5	0.1%	-4.7	-2
CCOC(=O)C1(CCc2ccccc2)CCN(C(=O)CCn2cncn2)CC1	-0.2	10	-6	1.5%	-2.2	-3
COc1cc(/C=C(/C#N)C(=O)NC(C)c2ccccc2)cc(OC)c1O (stereo unspecified)	9.4	-1	-4	9.1%	-6.8	-7
COc1ccc(CNS(=O)(=O)c2c(C(=O)N3CCCCC3)c(C)n(C)c2C)cc1	-0.9	3	2	-0.8%	-0.8	-2
Cc1cccc(N(C2C=CS(=O)(=O)C2)S(=O)(=O)c2ccccc2)c1 (stereo unspecified)	-0.7	0	3	0.8%	-2.0	-6
CC(=O)NC(C(=O)OCC(=O)N(c1ccccc1)c1ccccc1)C(C)C (stereo unspecified)	0.8	0	1	0.2%	1.7	5
CCc1cc(C(=O)NNC(=S)NCC2CCCO2)cs1 (stereo unspecified)	0.9	2	3	6.5%[38.3 µM]	-2.0	-8
O=C(COc1ccc(Cl)cc1)N1CCN(C(=O)c2cccc(F)c2)CC1	0.2	7	-1	-1.0%	0.0	8
O=C(N/N=C/c1ccc(O)cc1O)/C(=C/c1ccccc1)CCO	-0.6	-92*	-89*	0.5%	0.1	-39
COc1ccc(S(=O)(=O)N2CCCCC2)cc1NC(=O)C1CCCC1	-1.1	/	3	-0.2%	-4.2	0
O=C(Nc1ccc(F)cc1F)c1cc(-c2ccc3c(c2)OCO3)on1	-0.3&-0.9	3	2	4.0%&0.3%	-1.1	-5
Cc1ccc(-c2ccc(/C=N/NC(=O)CN3CCOCC3)o2)cc1[N+](=O)[O-]	0.8	-2	1	3.7%	3.8	-6
CC(=O)Nc1ccc(OCc2ccccc2)cc1[N+](=O)[O-]	0.0	20	-18	0.7%	-0.9	6
CC(C)CNC(=S)Nc1ccccc1F	-0.7	21	25	-0.6%	-2.6	-11
